Lassa entry inh: blocks Lassa virus binding to or entry into cells | Lassa virus pseudotype entry inhibition, cell reporter; control for the full effect not named in the record | Potency, µM (highest dose often 37.9 µM), without a hit: top-dose activity change, negative = inhibition, most hits filed as inhibitors | hit rate 1.2% among 300,000; active means well fitted inhibition curve with a large enough effect; inconclusive means small, poorly fitted or top-dose-only effect, or effect the other way; inactive means flat fitted curve, though single readings scatter; tested in HEK293 cells; also: % is scaled to controls: 0 for no effect and ±100 for the full control effect; nearly all actives have a fitted effect of over 50% in size; luciferase read-out
RE007 growth inh: less growth of the S. pombe RE007 Vpr strain; S. pombe RE007 Vpr strain, BacTiter-Glo ATP luminescence, 24 h; control for the full effect not named in the record; Potency, µM (series often up to 92.2 µM), for inactives: at the top dose activity change, negative = less growth; hit rate 0.21% among 360,000; active = well fitted falling curve with a large enough effect; inconclusive = small, poorly fitted or top-dose-only effect; inactive = no such curve, though single readings can be large or run the other way;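 also: % is scaled to controls: 0 for no effect and ±100 for the full control effect; nearly all actives have a fitted effect of over 50% in size; the assay follows cell death caused by Vpr and the record does not say whether a fall means rescue or toxicity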
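Fission yeast RE007 carrying one integrated HIV-1 vpr copy, seeded at OD 0.01 in PMG+AL medium with 23 nL pinned compound. Grown 24 h at 30 degrees; viability read by BacTiter-Glo luminescence after 5 min.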
Cruzain Triton: cruzain (T. cruzi) inhibition with detergent | P25779 | purified cruzain, Z-FR-AMC fluorescence, 0.01% Triton | Potency, µM, for inactives: max response, negative = inhibition, usual class: inhibitors | hit rate 0.43% among 200,000;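 also: plate controls were neutral wells for no effect and buffer without enzyme for full effect; nearly all actives have a fitted effect of over 40% in size; top concentration of the series not given in the record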
Target sequence (P25779 123-467 limits assumed): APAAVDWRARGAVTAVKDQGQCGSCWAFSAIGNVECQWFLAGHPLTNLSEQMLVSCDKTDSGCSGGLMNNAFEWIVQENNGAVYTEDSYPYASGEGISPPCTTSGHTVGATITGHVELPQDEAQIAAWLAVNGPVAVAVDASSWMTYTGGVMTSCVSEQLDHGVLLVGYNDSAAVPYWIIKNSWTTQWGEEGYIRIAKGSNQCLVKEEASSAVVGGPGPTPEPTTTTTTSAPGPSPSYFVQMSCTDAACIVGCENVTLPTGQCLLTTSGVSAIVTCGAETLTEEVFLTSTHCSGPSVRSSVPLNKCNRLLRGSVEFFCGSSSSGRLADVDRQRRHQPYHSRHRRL
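In this qHTS format, compounds are incubated with 1.5 nM cruzain for 15 min at room temperature before 2 uM Z-FR-AMC is added. Release of AMC is followed at 360/450 nm, and progress is taken as the 60 s fluorescence difference.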
NS1 function inh: blocks influenza NS1 protein function; S. cerevisiae slowed by influenza A NS1, growth recovery by OD600; Potency, µM (highest dose often 46.1 µM), for the others: at the top dose activity, positive = more growth; hit rate 0.4% among 270,000; AID 2326; active means well fitted rising curve with a large enough effect; inconclusive means small, poorly fitted or top-dose-only effect; inactive means no such curve, though single readings can be large or run the other way; also: nearly all actives have a fitted effect of over 50% in size
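A cell-based growth assay was used: compounds that relieve NS1-induced slow growth of budding yeast raise OD600. Assay medium was yeast nitrogen base with ammonium sulphate and -URA supplement, pH 6.0, with 2% galactose.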
Cruzain inh noDet: inhibitors of Trypanosoma cruzi cruzain without detergent; P25779; Potency, µM, for the others: max response, negative = inhibition, usual class: inhibitors; purified cruzain, Z-FR-AMC fluorescence, no detergent; hit rate 2.3% among 200,000;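 also: plate controls were enzyme without inhibitor for no effect and buffer without enzyme for full effect; nearly all actives have a fitted effect of over 40% in size; top concentration of the series not given in the record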
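Purified cruzain at 1.5 nM, pre-incubated 15 min with compound at room temperature in 100 mM sodium acetate pH 5.5, 5 mM DTT, 0.00005% Triton X-100. Reaction started with 2 uM Z-FR-AMC; AMC fluorescence increase over 60 s gives rate.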
SARS PLpro yeast: blocks SARS-CoV papain-like protease in a yeast assay; Potency, µM (doses to about 32.9 µM), inactives show at the highest dose activity, positive = growth rescue; AID 485353; hit rate 0.19% among 330,000; S. cerevisiae expressing SARS-CoV PLpro, growth rescue; control for the full effect not named in the record; active means well fitted rising curve with a large enough effect; inconclusive means small, poorly fitted or top-dose-only effect; inactive means no such curve, though single readings can be large or run the other way; also: 0% is about no effect; nearly all actives have a fitted effect of over 55% in size; growth read by luminescence after 48 h
StopGo reporter: FMDV 2A StopGo reporter, luciferase signal; Potency, µM (top dose mostly 57.9 µM), inactives show at the highest dose signal change, negative = less light; AID 1159524; human cells with a luciferase reporter of 2A StopGo recoding; control for the full effect not named in the record; hit rate 1.2% among 410,000; active = well fitted falling curve with a large enough effect; inconclusive = small, poorly fitted or top-dose-only effect; inactive = no such curve, though single readings can be large or run the other way; tested in HEK293T cells; also: % is scaled to controls: 0 for no effect and ±100 for the full control effect; nearly all actives have a fitted effect of over 45% in size; luciferase light after 4 h
MARV entry inh: inhibitors of Marburg virus binding or cell entry; Potency, µM (series often up to 37.8 µM), for the others: at the highest dose activity change, negative = inhibition, actives largely listed as inhibitors; Marburg virus pseudotyped entry inhibition, cell reporter; control for the full effect not named in the record; about a third of the inactives were read at about 46 µM; AID 540276; hit rate 1.8% among 300,000; active = well fitted inhibition curve with a large enough effect; inconclusive = small, poorly fitted or top-dose-only effect, or effect the other way; inactive = flat fitted curve, though single readings scatter; tested in HEK293 cells; about a fifth of its hits are not listed in these tables; also: % is scaled to controls: 0 for no effect and ±100 for the full control effect; luciferase read-out
Active calls of the source: *; ? = inconclusive; . = no result given; [ ] = remark or other dose. Unless noted, calls follow the shape of the dose curve; as a rule, active = well fitted curve in the direction sought with a large enough effect; inconclusive = small, poorly fitted or top-dose-only effect, or another doubt; inactive = no such curve, though single readings can be large; an effect the other way counts as inactive or inconclusive. Potency is read from the fitted curve at half-maximal effect.

SMILES	Lassa entry inh	RE007 growth inh	Cruzain Triton	NS1 function inh	Cruzain inh noDet	SARS PLpro yeast	StopGo reporter	MARV entry inh
O=C1c2ccccc2C(=Nc2ccccc2)C1c1cccc(Br)c1 (stereo not given)	4%	-15%	-0.8%	4%	?	4%	-9%	?
CN(C)C1(CNC(=O)C2CCN(S(=O)(=O)c3c(Cl)cccc3Cl)CC2)CCCCC1	12%	13%	.	.	.	2%	-18%	3%[46.1 µM]
O=C1/C(=C/c2ccncc2)Oc2cc(OS(=O)(=O)c3ccccc3)ccc21	.	14%	.	1%	.	0%	?	.
O=C(NNc1ccc(-c2csnn2)cc1)c1cc(Cl)cc(Cl)c1	.	89%	.	-68%	.	-7%	0%	-14%
Cc1ccc(NC(=O)Cn2c(=O)c(CNc3ccccc3)cc3cc4c(cc32)OCCO4)cc1	0%[46.1 µM]	.	-4.3%	.	?	.	-10%	.
CC(C)C[C@@H](COc1ccccc1)N1CCN(Cc2ccccc2)CCC1=O	.	16%	.	18%	.	-2%	-14%	.
NC(=O)C1CCN(C(=O)CCNS(=O)(=O)c2cc(Br)cnc2N)CC1	.	-2%	.	-13%	.	-4%	-11%	.
Clc1ccc(N2CCN(Cc3ccc(Br)o3)CC2)cc1	?	-26%	.	-5%	.	-3%	-20%	-11%[46.1 µM]
Cc1cc(C)n(CCC(=O)N=Nc2c(O)[nH]c3ccccc23)n1	.	-5%	.	6%	.	-1%	-17%	.
CC(=O)c1cccc(NC(=O)c2oc(C)nc2C)c1	-5%	8%	-2.5%	-6%	-11%	2%	21%	-4%
O=C(CN1CCSc2ccccc21)N1CCN(c2cccc(Cl)c2)CC1	-23%[46.1 µM]	.	-7.2%	.	-9%	.	-20%	.
CCOC(=O)c1ccccc1NC(=O)c1cccc2c1C(=O)N(C1CCN(C(=O)OCC)CC1)C2	.	-3%	-3.0%	-65%	?	10%	?	-5%
CCC1CCCCN1CCCNC(=O)CCC(=O)N1CC(C)Oc2ccccc21 (stereo not given)	.	-3%	.	-5%	.	0%	-16%	.
CC(=O)NCCC(=O)Nc1nc(-c2ccccc2Cl)cs1	-25%[46.1 µM]	7%	.	1%	.	-1%	22%	-4%[46.1 µM]
COc1ccc(-n2nnnc2C2CCN(S(=O)(=O)c3cccc(C(F)(F)F)c3)CC2)cc1	2%[46.1 µM]	.	0.4%	.	-1%	.	1%	11%[46.1 µM]
Cc1cc(C)c(NC(=O)CN2C(=O)CCSc3ccc(S(=O)(=O)N4CCCC4)cc32)c(C)c1	-10%[46.1 µM]	.	-0.3%	.	-1%	.	-2%	.
Cc1noc(C)c1COc1ccc(C(=O)NCC(c2c(F)cccc2Cl)N(C)C)cc1 (stereo not given)	18%	0%	.	.	.	4%	-17%	-24%
O=C(CSc1nnc(CNC(=O)c2ccccc2)o1)Nc1nccs1	-9%	1%	.	8%	.	5%	-1%	-1%
O=S(=O)(Nn1cnnc1)c1ccc(F)cc1	-9%[46.1 µM]	22%	.	5%	.	0%	1%	?
COc1ccc(NC2CCCN(C(=O)c3csc(C)n3)C2)cc1 (stereo not given)	0%	-7%	.	7%	.	1%	-3%	6%

Five compounds from above, arranged by heavy-atom count, lowest first.
SMILES	Lassa entry inh	RE007 growth inh	Cruzain Triton	NS1 function inh	Cruzain inh noDet	SARS PLpro yeast	StopGo reporter	MARV entry inh
O=S(=O)(Nn1cnnc1)c1ccc(F)cc1	-9%[46.1 µM]	22%	.	5%	.	0%	1%	?
O=C1c2ccccc2C(=Nc2ccccc2)C1c1cccc(Br)c1 (stereo not given)	4%	-15%	-0.8%	4%	?	4%	-9%	?
NC(=O)C1CCN(C(=O)CCNS(=O)(=O)c2cc(Br)cnc2N)CC1	.	-2%	.	-13%	.	-4%	-11%	.
O=C(CN1CCSc2ccccc21)N1CCN(c2cccc(Cl)c2)CC1	-23%[46.1 µM]	.	-7.2%	.	-9%	.	-20%	.
CN(C)C1(CNC(=O)C2CCN(S(=O)(=O)c3c(Cl)cccc3Cl)CC2)CCCCC1	12%	13%	.	.	.	2%	-18%	3%[46.1 µM]

(more compounds)
SMILES	Lassa entry inh	RE007 growth inh	Cruzain Triton	NS1 function inh	Cruzain inh noDet	SARS PLpro yeast	StopGo reporter	MARV entry inh
CSc1ncccc1C(=O)NCC(=O)Nc1ccc(F)c(F)c1	2%	-21%	.	1%	.	21%	-5%	17%
C=CCNC(=O)COC(=O)c1ccccc1C(=O)N(C)C1CCCCC1	-2%	15%	-0.9%	9%	-3%	-31%	-15%	-3%
COc1ccc(NC(C)=O)cc1C#N	12%	-5%	.	-1%	.	0%	12%	-6%[46.1 µM]
O=C(Nc1ccccc1Br)C1CCC(=O)N1Cc1ccccc1Cl (stereo not given)	-21%	3%	5.1%	16%	-11%	6%	10%	-3%
NC(=NCCc1ccccc1)NS(=O)(=O)c1ccc(F)cc1	-3%	-8%	-3.3%	-3%	8%	?	-19%	?
Cc1cc(NC(=O)c2cc(-c3cccs3)on2)no1	-15%	3%	3.9%	-16%	-11%	-14%	59%[activator]	5%
Oc1ccccc1N1CCN(CC(O)COCc2ccccc2Cl)CC1 (stereo not given)	.	2%	.	3%	.	0%	-12%	.
CCC1Oc2ccccc2N(CC(=O)N2CCOCC2)C1=O (stereo not given)	-15%	-6%	.	0%	.	8%	-3%	2%[46.1 µM]
CCOC(=O)C1CCN(C(=O)C(=O)N2CCC(C(=O)OCC)CC2)CC1	0%	-3%	3.1%	2%	2%	3%	.	0%
COC(=O)c1cc(NC(=O)CSc2nc(C)cc(=O)[nH]2)cc(C(=O)OC)c1	?	6%	2.1%	?	-23%	0%	4%	1%
CCCC1Cc2c(sc(NC(=S)NC(=O)c3ccccc3)c2C#N)CO1 (stereo not given)	.	.	-3.6%	14%	?	22%	.	.
O=C(c1cn(-c2ccccc2)nc1-c1ccccc1)n1nnc2ccccc21	4%	11%	-3.1%	3%	?	-2%	?	3%
COc1ccc(C(=O)NCC(=O)OCC(=O)Nc2c(C)n(C)n(-c3ccccc3)c2=O)cc1	20%	-4%	-20%	2%	-21%	1%	3%	-3%
COc1ccccc1N(C)S(=O)(=O)c1ccc(C(=O)OCC(N)=O)cc1	13%	41%	.	.	.	-1%	3%	-12%[46.1 µM]
Cc1ccc(-n2cc(-c3ccccc3)c3c(N4CCCCC4)ncnc32)cc1	-12%[46.1 µM]	.	-1.3%	.	8%	.	?	.
Cc1ccc(C)c(S(=O)(=O)N2CCCOC2CNC(=O)C(=O)NC2CC2)c1 (stereo not given)	8%	8%	.	6%	.	-4%	-16%	-3%
CCC(C)n1cnc2c(c1=O)c1nc3ccccc3nc1n2Cc1ccc2c(c1)OCO2 (stereo not given)	.	.	0.9%	15%	?	3%	.	.
CCc1ccccc1NC(=O)CSc1nnc([C@@H]2CCCN2C(=O)OC(C)(C)C)o1	-14%	-6%	5.3%	1%	16%	19%	0%	-9%
COc1ccc2c(c1)N(S(=O)(=O)c1ccccc1)CCC2=O	6%	12%	-4.5%	-9%	2%	-3%	-12%	?
CCNC(=O)NC(=O)COc1ccccc1C#N	-1%	-13%	4.4%	-14%	10%	-4%	.	2%
Cc1nc(Nc2ccccc2)c2oc3ccc(Cl)cc3c2n1	3%	-10%	.	-1%	.	-1%	-1%	?
Cc1ccc(S(=O)(=O)NCCc2nnc3ccc(SCC(=O)Nc4nc5ccccc5s4)nn23)cc1	9%	.	-3.9%	-9%	7%	-3%	.	18%
COc1cc(OC)c(OC)cc1CN1CCN(Cc2ccc(SC)cc2)CC1	?	-11%	.	.	.	-5%	-26%	7.3µM*
O=C(CSc1nc2ccccc2c(=O)[nH]1)N1CCCCCC1	20%	-5%	4.2%	-3%	-2%	4%	57%[activator]	?
CC(=O)N1c2ccccc2NC2=C(C(=O)CC(C)(C)C2)C1c1cccn1C (stereo not given)	26%	-27%	.	.	.	3%	11%	23%[46.1 µM]
Cc1ccc(S(=O)(=O)N2CCOCC2)cc1C(=O)NC1CCCCCC1	?	0%	.	17%	.	-2%	0%	-17%
CN(C)CCCNC(=O)c1cc(Br)ccc1Cl	-7%	-4%	0.7%	4%	-10%	1%	7%	9%
Cc1csc(=N)n1-c1ccc(Cl)cc1	?	-16%	-9.0%	-55%	2%	13%	.	-8%
NC(=O)C1CCCN(Cc2c(C(=O)N3CCc4ccccc4C3)nc3ccc(Cl)cn23)C1 (stereo not given)	.	1%	.	2%	.	-7%	-18%	.
CCCCNC(=S)N1CCN(C(c2ccccc2)c2ccccc2)CC1	-9%	6%	.	.	.	2%	-24%	-9%[46.1 µM]
COc1ccc(CNC(=O)COC(=O)Cc2ccc(Cl)cc2Cl)cc1	.	16%	-2.1%	-11%	8%	?	-18%	.
COc1ccc(OC)c(NC(=O)Cn2cnc3c(oc4ccccc43)c2=O)c1	8%[46.1 µM]	.	-11%	.	10%	.	59%[activator]	.
CC(C)(C)c1ccc(C(=O)NNc2cc(N3CCOCC3)nc(N3CCOCC3)n2)cc1	-7%	-9%	.	11%	.	0%	-13%	-29%[14.2 µM]
CCn1c(COc2ccccc2)nnc1SCC(=O)NC1CC1	.	1%	.	3%	.	-7%	-10%	.
Cc1ccc(N2C(=O)CC(Cn3nc(C)cc3C)C2=O)cc1 (stereo not given)	5%	8%	2.4%	-2%	1%	-1%	-12%	-1%
Cc1ccc2c(c1)c1nc3ccccc3nc1n2C	.	0%	.	-29%	.	-4%	36%[activator]	.
CN(CC(=O)NCc1ccc(Cl)cc1)S(=O)(=O)c1cccs1	2%	2%	.	17%	.	-1%	0%	-14%[46.1 µM]
Cc1nn2c(nc1=O)NNC2(C)C(C)(C)C (stereo not given)	.	16%	.	-1%	.	-1%	-12%	.
O=S(=O)(NCc1nnc2c(C(F)(F)F)cc(Cl)cn12)c1ccccc1	.	-10%	.	13%	.	-2%	-8%	.

Screens: PubChem, National Center for Advancing Translational Sciences (NCATS)
